Screening data (PubChem)
ugtP null kill = growth inhibition of S. aureus ugtP deletion strain | growth inhibition, % (concentration not given with the values) | S. aureus RN4220 ugtP deletion, OD600 growth, 16 h; some inactives read as strong as hits | 330,000 tested, 0.54% active;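 active = z-score under -3 and OD600 up to 0.15 on both plates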;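 also: plate controls were untreated wells for no effect and antibiotic for full effect; wells of about 80 µL received 100 nL stock; the first replicate is given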
Mtb hypoxia rep = reduces hypoxia-regulated biosensor signal in M. tuberculosis. fluorescence inhibition, % (test concentration not listed). M. tuberculosis hypoxia-regulated fluorescent reporter, fluorescence. 300,000 tested, 0.1% active;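 active = 35 to 45% if threefold the growth effect, above 45% if 1.5-fold the growth effect; inactive = the rest, general growth blockers included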;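 also: wells of about 50 µL received 100 nL stock; 0% = vehicle wells and 100% = reference inhibitor wells; whole bacteria with a GFP reporter of the hypoxia response; strong numbers were not always called active; many hits fall short of the cut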
Sa RN4220 lethal = kills Staphylococcus aureus RN4220; 330,000 tested, 0.33% active; S. aureus RN4220 growth, OD600, 16 h; AID 1259311; inhibition, % (concentration not given with the values);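 active = z-score of -3 or lower and OD600 up to 0.18 on both plates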;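 also: plate controls were untreated cells for no effect and reference antibiotic for full effect; stock transfer was 100 nL into about 80 µL; one replicate is shown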
Bead autofluor = compound fluorescence in toxin protease inhibitor counterscreen; compound autofluorescence counterscreen, microsphere flow cytometry; hits give high values; fluorescence intensity (no concentration beside the values); 360,000 tested, 3.1% active;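 active = at least 3 SD above the mean of all compounds, about 16000 in these data; inconclusive = too few beads counted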;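 also: 100 nL of 1 mM stock went into each well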
PrP UTR inh = inhibition of PrP 5' UTR reporter expression; cell-based PrP 5' UTR mRNA reporter, plate reader; inhibition, % (test concentration not listed); 340,000 tested, 0.35% active; AID 488862;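 active = every replicate at 50% or more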;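 also: 0 = median of the neutral control wells; tested in H4 reporter cells; numbers are from one replicate; inactives centre near -14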
BJeLR lethal = kills HRASV12-expressing BJeLR cells | 300,000 tested, 0.17% active | inhibition, % (concentration not given with the values) | AID 1554 | BJeLR (HRASV12) viability, CellTiter-Glo ATP luminescence, 48 h; reference of the scale not given here;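 active = replicate mean above 50%; inconclusive = above 50% but judged a plate artefact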;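 also: 50 nL library stock added to about 25 µL; numbers are from one replicate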
Mtb hypoxia rep growth = also measured in Mtb hypoxia rep; calls as there; growth inhibition, %; measured here: M. tuberculosis growth (absorbance);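 0% = vehicle and 100% = reference antibiotic; read after six days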
* hit, by the source's call; ? = inconclusive; · = not tested or not shown. Compounds as they come; 4% or so of the library scored in one or more.

[1] CC(C)C[C@H](NC(=O)c1nc[nH]c1C(=O)N1CCc2ccccc2C1)C(=O)OC(C)(C)C
[2] CC1(C)CC(=O)C(C=Nc2cccnc2N=CC2=C(O)CC(C)(C)CC2=O)=C(O)C1
[3] O=C(O)CCn1cc(/C=C/C(=O)c2ccc(Cl)cc2)c(-c2cccc(Br)c2)n1
[4] CC(=O)N1CCN(C(=S)c2ccc(-c3ccc(Cl)cc3)o2)CC1
[5] O=C1/C(=C/N(C(=O)c2ccco2)c2ccc(Cl)cc2)Sc2ccccc21
[6] CCOC(=O)c1ccc(NC(=O)C(C)Sc2nc(O)c(-c3ccccc3)c(=O)[nH]2)cc1 (configuration not stated)
assay / compound	1	2	3	4	5	6
ugtP null kill	·	3	36	2	-7	-2
Mtb hypoxia rep	·	2	10	·	0	-6
Mtb hypoxia rep growth	·	1	7	·	3	9
Sa RN4220 lethal	·	2.5	20	-5.3	0.9	-0.1
Bead autofluor	3502	·	4616	4271	2865	4781
PrP UTR inh	-11	·	-20	-17	-101	-36
BJeLR lethal	-5	·	1	12	-6	-1

[7] COc1ccc(C2=NCC(=O)N(CC(=O)NCc3ccco3)c3sc4c(c32)CCCC4)cc1OC
[8] COc1ccc(CC(=O)OCC(=O)Nc2ccc(F)cc2)cc1
[9] CCOc1ccc2nc(NC(=O)NC3CCCCC3)sc2c1
[10] CC(=O)c1cc(CN2CCN(CCC(C)C)C(CCO)C2)cs1 (configuration not stated)
[11] CSCc1nnc(NC(=O)c2ccc(S(=O)(=O)N(C)C)cc2)o1
[12] O=C(Cc1ccccc1[N+](=O)[O-])NCc1ccco1
assay / compound	7	8	9	10	11	12
ugtP null kill	-7	8	·	-4	4	12
Mtb hypoxia rep	3	0	·	-5	14	-7
Mtb hypoxia rep growth	0	13	·	8	11	-1
Sa RN4220 lethal	4.3	-2.3	·	3.5	7.0	7.0
Bead autofluor	12932	5883	3419	6327	1928	4490
PrP UTR inh	-7	-20	24	-19	-2	-16
BJeLR lethal	-13	·	-3	3	-2	-7

Copied from above: nos. 9–12
[9] CCOc1ccc2nc(NC(=O)NC3CCCCC3)sc2c1
[10] CC(=O)c1cc(CN2CCN(CCC(C)C)C(CCO)C2)cs1 (configuration not stated)
[11] CSCc1nnc(NC(=O)c2ccc(S(=O)(=O)N(C)C)cc2)o1
[12] O=C(Cc1ccccc1[N+](=O)[O-])NCc1ccco1
assay / compound	9	10	11	12
ugtP null kill	·	-4	4	12
Mtb hypoxia rep	·	-5	14	-7
Mtb hypoxia rep growth	·	8	11	-1
Sa RN4220 lethal	·	3.5	7.0	7.0
Bead autofluor	3419	6327	1928	4490
PrP UTR inh	24	-19	-2	-16
BJeLR lethal	-3	3	-2	-7

Next compounds:
[13] CCOc1cc(/C=C2/C(=O)NN(c3cccc(Cl)c3)C2=O)ccc1O
[14] Cc1cc(N/C(=N\S(=O)(=O)c2ccc(F)cc2F)c2ccccc2)no1
[15] O=C(COc1cccc(C(F)(F)F)c1)NCC(c1ccco1)N1CCCCC1 (configuration not stated)
[16] CC1=NCCN1CCNC(=O)Nc1ccc(C(C)(C)C)cc1
[17] O=C(NCc1cccnc1)c1cc(S(=O)(=O)N2CCCCC2)ccc1Cl
[18] Cc1cccc(CSCc2ccc(C(=O)NC3CCCC3)o2)c1
assay / compound	13	14	15	16	17	18
ugtP null kill	11	·	0	8	-5	5
Mtb hypoxia rep	-1	·	3	4	8	15
Mtb hypoxia rep growth	-1	·	11	2	12	5
Sa RN4220 lethal	4.5	·	1.3	1.9	4.4	-0.3
Bead autofluor	4067	17822*	?	·	9945	4585
PrP UTR inh	-21	-10	-15	-14	-19	-2
BJeLR lethal	20	-13	-14	6	4	14

As entered above:
cpd 1 @ Bead autofluor: 3502
cpd 7 @ Bead autofluor: 12932

Other compounds
[19] COc1ccccc1NS(=O)(=O)c1cccc(C(=O)NC2CCN(Cc3ccccc3)CC2)c1
[20] O=C(NCCc1ccncc1)Nc1ccccc1Cl
[21] COc1ccccc1CNc1ncnc2nc[nH]c12
[22] Cc1sc2ncn(Cc3ccccc3F)c(=O)c2c1C
[23] CCOC(=O)c1ccccc1NC(=S)N1CCN(C(=O)c2ccco2)CC1
[24] COc1cccc2cc(-c3ccccc3)oc12
assay / compound	19	20	21	22	23	24
ugtP null kill	10	-2	·	5	2	21
Mtb hypoxia rep	9	17	·	6	2	-7
Mtb hypoxia rep growth	-1	6	·	-3	2	-4
Sa RN4220 lethal	2.5	7.1	·	3.7	0.8	5.6
Bead autofluor	9070	13026	5876	2615	5839	·
PrP UTR inh	-12	-18	-4	-16	-42	·
BJeLR lethal	16	7	-2	2	-8	-1

Record cards (already shown). Values in the order: ugtP null kill | Mtb hypoxia rep | Mtb hypoxia rep growth | Sa RN4220 lethal | Bead autofluor | PrP UTR inh | BJeLR lethal
Cc1sc2ncn(Cc3ccccc3F)c(=O)c2c1C is listed as 5 | 6 | -3 | 3.7 | 2615 | -16 | 2
COc1ccccc1NS(=O)(=O)c1cccc(C(=O)NC2CCN(Cc3ccccc3)CC2)c1 is listed as 10 | 9 | -1 | 2.5 | 9070 | -12 | 16

The list goes on.
[25] O=C1Nc2ccc(NS(=O)(=O)c3cccs3)c3cccc1c23
[26] O=c1[nH]c(=S)[nH]c2nc(-c3ccccc3)cnc12
[27] CC1CCCN(C(=O)CCl)C1 (configuration not stated)
[28] CC(C)N(C(=O)/C=C/c1cccc([N+](=O)[O-])c1)C(C)C
[29] S=C(NCc1ccc(Cl)cc1)NC1CCN(Cc2ccccc2)CC1
[30] O=C(NC1CCS(=O)(=O)C1)c1ccccc1Cl (configuration not stated)
assay / compound	25	26	27	28	29	30
ugtP null kill	-6	-7	6	7	-14	4
Mtb hypoxia rep	-1	4	24	0	18	13
Mtb hypoxia rep growth	11	9	26	12	6	2
Sa RN4220 lethal	-9.4	8.0	2.7	2.7	-7.1	9.4
Bead autofluor	2631	5506	2641	2511	5833	4868
PrP UTR inh	-10	-5	-5	-17	-10	-18
BJeLR lethal	-4	8	3	2	9	·

[31] Cc1ccc(N2C(=O)C3CCC(C)(C2=O)C3(C)C)cc1C (configuration not stated)
[32] CCOc1nc(C)ccc1-c1noc(C)n1
[33] CCNc1nc(NCC)nc(NN=Cc2ccc(O)c(OC)c2)n1
[34] CCOc1ccc(S(=O)(=O)NCCC(=O)NCc2ccco2)cc1
[35] O=C1N(Cc2cccc(Cl)c2)C[C@@H]2C[C@@H](c3cccc4cccnc34)N3CCC[C@@]123
[36] CCC(=O)c1ccc(OCC(=O)Nc2ccccc2C(=O)N2CCCCC2)cc1
[37] COc1ccccc1NC(=O)CSc1nnc(COc2ccccc2OC)n1C
[38] CC1CCN(c2nc3ccccc3nc2C(C#N)C(=O)NC2CCCCC2)CC1 (configuration not stated)
assay / compound	31	32	33	34	35	36	37	38
ugtP null kill	7	10	8	3	21	5	1	12
Mtb hypoxia rep	4	3	1	9	11	6	14	0
Mtb hypoxia rep growth	4	-3	-5	10	15	11	-1	3
Sa RN4220 lethal	3.5	2.2	4.0	0.5	1.6	2.6	2.4	4.3
Bead autofluor	4318	7889	·	4586	24208*	5353	2133	·
PrP UTR inh	-23	·	·	-17	4	-6	-16	·
BJeLR lethal	-7	-7	·	4	1	-5	5	0

A second format for some results above.
entry | smiles | ugtP null kill | Mtb hypoxia rep | Mtb hypoxia rep growth | Sa RN4220 lethal | Bead autofluor | PrP UTR inh | BJeLR lethal
36 | CCC(=O)c1ccc(OCC(=O)Nc2ccccc2C(=O)N2CCCCC2)cc1 | 5 | 6 | 11 | 2.6 | 5353 | -6 | -5
37 | COc1ccccc1NC(=O)CSc1nnc(COc2ccccc2OC)n1C | 1 | 14 | -1 | 2.4 | 2133 | -16 | 5
38 | CC1CCN(c2nc3ccccc3nc2C(C#N)C(=O)NC2CCCCC2)CC1 (configuration not stated) | 12 | 0 | 3 | 4.3 | · | · | 0
